D2 ag: activates the human D2 dopamine receptor; activation, % (test concentration not listed); DiscoveRx PathHunter D2 beta-arrestin, luminescence, 90 min; 100% = 57 uM dopamine signal; AID 624465; hit rate 0.084% among 360,000; in the data active = activation above about 40%; inconclusive = about 15% to 40%; inactive = below about 15%; also: compound concentration not given in the record; the text of the record calls up to 30% inactive
Target sequence (P14416 whole entry, looked up): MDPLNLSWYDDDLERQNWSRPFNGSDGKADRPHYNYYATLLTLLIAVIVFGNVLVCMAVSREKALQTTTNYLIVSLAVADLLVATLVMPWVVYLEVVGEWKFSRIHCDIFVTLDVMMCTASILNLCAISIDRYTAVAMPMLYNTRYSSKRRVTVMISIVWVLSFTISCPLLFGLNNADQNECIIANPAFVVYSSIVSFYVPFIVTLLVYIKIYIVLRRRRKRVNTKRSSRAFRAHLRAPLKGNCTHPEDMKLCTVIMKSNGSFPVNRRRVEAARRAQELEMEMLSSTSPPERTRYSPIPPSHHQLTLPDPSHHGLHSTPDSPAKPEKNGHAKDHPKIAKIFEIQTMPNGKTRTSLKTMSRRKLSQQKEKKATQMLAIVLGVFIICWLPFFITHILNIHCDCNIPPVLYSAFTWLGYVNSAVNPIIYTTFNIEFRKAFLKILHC
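Agonist mode: compounds alone added to overnight-plated D2 PathHunter cells for 90 min at 37 C, with 57 uM final dopamine (EC100) defining full response. Beta-arrestin recruitment detected by chemiluminescent reagent, read after 1 h at ambient temperature.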
TRPML1 blocker: inhibitors of human TRPML1 channel; activity change, negative = inhibition, % (no concentration beside the values); Q9GZU1; TRPML1-inducible cells, Ca2+ dye fluorescence, FDSS; hits give low values; inhibition of EC80 agonist-evoked calcium signal; hit rate 0.02% among 390,000; in the data active means activity change below about -50%; inconclusive means about -30% to -50%; inactive means above about -30%;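 also: stimulus is agonist 54-4 at its EC80 concentration; % is scaled to controls: 0 for no effect and ±100 for the full control effect; compound concentration not given in the record; the text of the record puts the active cut at -80%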
Target sequence (Q9GZU1 whole entry, looked up): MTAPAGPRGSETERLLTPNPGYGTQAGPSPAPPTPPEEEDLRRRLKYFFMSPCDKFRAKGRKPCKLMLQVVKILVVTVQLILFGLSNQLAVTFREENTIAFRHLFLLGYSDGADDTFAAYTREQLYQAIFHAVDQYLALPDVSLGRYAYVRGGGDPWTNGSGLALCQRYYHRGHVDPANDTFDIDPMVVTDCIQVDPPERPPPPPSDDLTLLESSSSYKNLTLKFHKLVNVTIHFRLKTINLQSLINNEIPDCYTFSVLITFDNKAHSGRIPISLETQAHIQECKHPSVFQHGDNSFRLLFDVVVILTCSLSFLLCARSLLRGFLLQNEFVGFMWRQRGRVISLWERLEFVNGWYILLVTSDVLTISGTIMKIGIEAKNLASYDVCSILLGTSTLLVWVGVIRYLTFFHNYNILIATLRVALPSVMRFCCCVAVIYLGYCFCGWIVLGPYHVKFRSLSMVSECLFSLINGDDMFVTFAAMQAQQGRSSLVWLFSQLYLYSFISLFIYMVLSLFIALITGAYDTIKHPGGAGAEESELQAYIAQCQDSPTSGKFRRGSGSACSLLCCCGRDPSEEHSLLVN
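Calcium fluorescence in TRPML1-DL cells induced overnight with Tet: a 110 s read after compound pin addition, then a 110 s antagonist read after challenge with 54-4 at 4 uM final (EC80).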
Six1-Eya2 inh: inhibitors of human Six1/Eya2 interaction | activity change, % (concentration not given with the values) | hit rate 0.56% among 360,000 | AlphaScreen GST-Six1/His-Eya2 binding, biochemical; hits give low values; control for the full effect not named in the record | Q15475+O00167 | AID 651725; in the data active = activity change below about -65%; inconclusive = about -30% to -65%; inactive = above about -30%; also: % is scaled to controls: 0 for no effect and ±100 for the full control effect
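AlphaScreen luminescence read after one hour at 37 °C in darkness. Pin-transferred compounds met GST-Six1 and His-Eya2 protein (5X stock 250 nM/500 nM) plus glutathione donor and Ni-chelate acceptor beads (5X, 50 ug/mL).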
PINK1 expr mod: modulators of PINK1 expression; PINK1 immunofluorescence, high-content cytometry, 24 h; Potency, µM (doses to about 76.6 µM), for inactives: at the top dose activation (PINK1 increase), most hits filed as activators; hit rate 0.2% among 410,000; active = well fitted activation curve with a large enough effect; inconclusive = small, poorly fitted or top-dose-only effect; inactive = flat fitted curve, though single readings scatter; cell line not stated here;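 also: potency is read from the fitted curve at half-maximal effect; % of control where 0% means no effect; nearly all actives have a fitted effect of over 65% in size; a mitochondrial uncoupler was the plate control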
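PINK1 protein, normally rapidly degraded, was detected by immunofluorescence after 24 hour compound treatment of a stable cell line. Titration data (5 concentrations) came from laser-scanning cytometry, with CCCP-treated wells as controls.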
D2 potentiator: potentiates the human D2 dopamine receptor allosterically; P14416; DiscoveRx D2 beta-arrestin cells, luminescence, 90 min; 100% = 57 uM dopamine signal; potentiation, % (concentration not given with the values); hit rate 0.23% among 360,000; active = potentiation of 50% or more; inconclusive = 30% to 50%; inactive = 30% or less;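 also: compound concentration not given in the record; tested on top of an EC20 dose of dopamine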
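D2 cells co-treated with compound plus 50 nM dopamine (EC20) for 90 min at 37 deg C to detect potentiation. Beta-arrestin recruitment was read as enzyme-fragment luminescence after 1 h at ambient temperature. Full response was set by 57 uM dopamine.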
TRPML1 agonist: human mucolipin-1 channel agonism; Q9GZU1; TRPML1-expressing cells, Ca2+ dye fluorescence, FDSS; host cell line not named in the record; reference of the full effect not given here; activation, % (concentration not given with the values); hit rate 0.12% among 410,000; AID 624414; in the data active = activation above about 50%; inconclusive = about 30% to 50%; inactive = below about 30%; also: 0% is about no effect; the text of the record puts the active cut at 80%
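In this qHTS format, compounds were pin-transferred onto Ca8-dye-loaded TRPML1-DL cells induced with Tet overnight, and intracellular Ca2+ fluorescence was recorded kinetically for 110 s after a 10 s baseline. A subsequent 4uM final 54-4 (EC80) addition followed by a second 110 s read served as the antagonist phase.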
Starred values were filed as active, the others as inactive; ? = inconclusive; . = no result given; [ ] = another dose, or the depositor's remark.

SMILES | D2 ag | TRPML1 blocker | Six1-Eya2 inh | PINK1 expr mod | D2 potentiator | TRPML1 agonist
CCCCC[C@@H]1CCCCC[C@H](O)C[C@@H](O)[C@@H](O)/C=C/C(=O)O1 | . | . | 8 | -0.8% | . | 0.3
O=C(Cc1ccc(Cl)cc1)Nc1ccccc1C(=O)N1CCCC1 | -1.6 | 19 | 9 | -2.1% | -3 | 0.5
O=C(CN1C(=O)/C(=C\c2ccc(F)cc2)Oc2ccccc21)N1CCN(c2ccccn2)CC1 | -1.3 | -6 | 8 | 8.7% | -6 | -0.2
COC(=O)c1ccccc1NC(=O)c1nc(S(=O)(=O)Cc2cccc(C)c2)ncc1Cl | . | 2 | . | 0.7% | . | 1.3
COC(=O)c1ccccc1NC(=O)CCC(=O)N1CC(C)Oc2ccc(C)cc21 (stereo unspecified) | -6.2 | 4 | -7 | 3.8% | -1 | 1.3
O=C(CSc1nnc(CNC(=O)C23CC4CC(CC(C4)C2)C3)n1-c1ccc(F)cc1)Nc1ccccc1 | -1.3 | 8 | 1 | 3.4% | 13 | 0.7
COCCNC(=O)C(NC(=O)C1CCCCC1)C(C)C (stereo unspecified) | -2.3 | 0 | -9 | 1.1% | 2 | -1.0
O=C(COC(=O)[C@H](Cc1ccccc1)NC(=O)c1cccs1)NC1CC1 | -3.8 | -2 | 11 | 1.8% | -16 | -0.1
Cc1nn2c(=O)cc(COC(=O)c3ccccc3NC(=O)C(C)Oc3ccccc3)nc2s1 (stereo unspecified) | . | 12 | . | -1.0% | . | 1.7
Cc1ccc(-n2c(SCC(=O)N/N=C/c3ccccc3C(=O)O)nnc2-c2ccccc2)cc1 | -2.2 | 8 | -11 | -1.6% | -2 | 0.6
COc1ccc(N(C(C)C(=O)N/N=C/c2ccc(OC(C)C)cc2)S(C)(=O)=O)cc1 (stereo unspecified) | 1.0 | 6 | 0 | -5.0%[38.3 µM] | -3 | 0.2
Cc1nc(-c2ccc(F)cc2)sc1CCNC(=O)c1ccc(C(C)(C)C)cc1 | . | -6 | . | -0.4% | . | 0.2
Cc1cccc2nc(-c3cccnc3)c(Nc3ccccc3)n12 | -1.4 | 8 | -2 | 0.7% | -10 | 0.0
O=C(NCCc1cnc[nH]1)c1ccc(-c2ccccc2)cc1 | -7.0 | . | -8 | 0.2% | -26 | .
Cc1cc2ncn(S(=O)(=O)N3CCCCC3)c2cc1C | -1.6 | 16 | 3 | 0.5%[38.3 µM] | -11 | 1.7
O=c1c2c3c(sc2ncn1/N=C/c1cccnc1)CCCC3 | 2.7 | 9 | -10 | 1.5% | -19 | -0.5
Cc1cc(C)nc(SCc2nnc(SCC#N)n2-c2cccc(Cl)c2)n1 | -0.4 | -13 | 4 | 2.7%[38.3 µM] | 12 | 0.1
O=C(c1nc2ccccn2c1CNCCCn1cccn1)N1CCCC1 | -0.1 | 1 | 1 | 1.9% | -2 | -0.9
COc1cc(CNc2ccc3c(c2)OCCO3)ccc1OCC(N)=O | 4.9 | 54 | -7 | -0.9% | -3 | 2.0
CCOC(=O)CC(NC(=O)c1cc2cc(OC)ccc2oc1=O)c1ccc(OC)cc1 (stereo unspecified) | . | -9 | . | 0.7% | . | -0.2
Cc1cc(C)c2nc(N(CCN(C)C)C(=O)c3ccc4ccccc4c3)sc2c1 | -1.9 | 4 | -27 | ? | -31 | -0.4
Cc1cccc(-c2cc3nc(C)cc(N4CC(C)CC(C)C4)n3n2)c1 (stereo unspecified) | -3.2 | 1 | -3 | ? | -8 | -0.6
Cc1ccccc1/C=C/c1cccc[n+]1C | -1.4 | -9 | -2 | ? | 25 | -0.6
CCc1nc2ccc(C(=O)N(C)CCCN(C)C)cn2c1N(C)CCCc1ccccc1 | -7.0 | . | -11 | -0.5% | -9 | -0.2
O=C(Nc1ccc(NC(=O)C2CC2)nc1)c1ccccn1 | -0.2 | -1 | -3 | -0.5% | -3 | -0.5
COc1ccc(-c2sc3ccc(OC)cc3c2C#Cc2cncn2C)cc1 | -4.1 | 5 | -2 | 0.4% | -14 | 0.0
Cc1ccc(/C=N\NC(=O)C2COc3cc4ccccc4cc3O2)o1 (stereo unspecified) | -3.6 | -5 | -6 | 2.1% | -11 | 2.2
CCN(CC)CCNC(C(=O)Nc1cc(C(F)(F)F)ccc1Cl)c1ccccc1 (stereo unspecified) | -6.6 | 4 | 1 | 6.6% | -10 | 1.1
CC(C)(C)OC(=O)N1CCC(C(=O)Nc2ccc3c(c2)CCC3)CC1 | -1.7 | -15 | -1 | 0.7% | -4 | 1.7
Cc1cc(C)c(/C=N/NC(=O)c2nnn(-c3nonc3N)c2COc2ccc(F)cc2)c(C)c1 | -4.9 | -14 | 0 | -2.1% | -15 | 1.1
Cc1ccc(CN2CCN(/N=C/c3cccs3)CC2)cc1 | -1.2 | 16 | -27 | 1.3% | -30 | 2.7
CCOC(=O)CC(=O)Nc1ccc(C)cc1 | -7.0 | 1 | -5 | -0.9% | -10 | -0.2
CCc1nc2sc3c(c2c(=O)n1N)CCC3 | -0.3 | -13 | 4 | 0.5% | -13 | -0.1
CCCC1=NN(C(=O)Cc2ccc([N+](=O)[O-])cc2)C(O)(C(F)(F)F)C1 (stereo unspecified) | -1.4 | 23 | 4 | 1.2% | -6 | 1.1
CCOc1ccc(NS(=O)(=O)c2ccc(C(=O)N3CCCCC3)cc2)cc1 | -15 | -2 | 1 | 3.0% | -9 | 4.7
Cc1cc(C(F)(F)F)nn1Cc1n[nH]c(=S)n1-c1ccc(F)cc1 | -0.7 | -13 | 1 | 1.2% | -20 | 0.5
Cn1c(=O)c2c(nc(N3CCCC3)n2CC(O)CO)n(C)c1=O (stereo unspecified) | -4.3 | 13 | -7 | 0.7%[38.3 µM] | -3 | -0.6
Cc1nc(C)c(C(=O)N2CCCC(CCC(=O)NCc3ccc(F)c(F)c3)C2)s1 (stereo unspecified) | 1.9 | 21 | -1 | 2.9% | -7 | 1.5
COc1ccccc1Cc1c(-c2ccc(F)cc2)nc2cc(C)c(Br)c(C)n12 | . | . | -2 | 3.6% | . | -0.4
CC(=O)Nn1cnc2c(c1=O)C1(CCCC1)Cc1ccccc1-2 | -2.1 | 8 | -2 | -1.3% | 4 | -0.5
CC1=CCC(C(=O)N/N=C/c2cccs2)C(c2ccc(F)cc2)C1 (stereo unspecified) | -3.8 | 14 | -5 | 6.6% | 4 | 5.1
CCCCNc1c(-c2ccc(OC)c(SC3CCCCC3)c2)nc2ccc(Cl)cn12 | ? | 10 | -5 | 16% | -1 | -0.4
CN(CC(=O)O)c1ccc(S(=O)(=O)N2CCOCC2)cc1[N+](=O)[O-] | 4.1 | 18 | 3 | 0.2% | -5 | 0.0
Fc1ccc(-n2[nH]nnc2=S)cc1N1CCCC1 | -0.6 | 28 | -2 | . | -17 | -0.2
Clc1ccc(OCCCCN2CCCCC2)cc1 | -1.8 | -17 | 7 | -0.9% | -22 | 0.7
O=C(Nc1cc(=O)[nH]c2ncnn12)c1ccccc1 | -3.4 | -5 | -10 | -1.0% | 13 | -0.2
CCc1ccc(NC(=O)NNC(=O)c2ccc3ccccc3c2O)cc1 | -0.9 | 13 | -4 | 0.4% | -11 | -0.6
O=C(c1ccco1)N1CCN(C2CC(=O)N(c3ccc(C(F)(F)F)cc3)C2=O)CC1 (stereo unspecified) | -5.6 | -6 | 4 | 0.9% | 19 | -0.4
CC1CCN(C(=O)CC#N)CC1 | -5.2 | -13 | -1 | 2.3% | -17 | -0.7
COc1ccccc1C(=O)NCCCNc1nc2cc(C)cc(C)c2cc1C#N | 3.1 | -8 | 24 | -2.5% | 2 | 5.1
Continued:
SMILES | D2 ag | TRPML1 blocker | Six1-Eya2 inh | PINK1 expr mod | D2 potentiator | TRPML1 agonist
Fc1ccc(-c2cc3nc(-c4ccccc4)cc(N4CCOCC4)n3n2)cc1 | -1.6 | -25 | 10 | 6.2%[38.3 µM] | -6 | 0.6
COc1ccccc1NS(=O)(=O)c1ccc(NC(=O)c2ccncc2)cc1 | -2.9 | -7 | -2 | -1.0% | -4 | 0.1
Cc1ccccc1-c1cc2nc(NCc3ccccc3)n(C)c(=O)c2s1 | -8.5 | . | 1 | ? | -10 | -0.6
CC(C)[C@H](N)c1nnc(SCc2ccc(Cl)cc2)o1 | 3.6 | -15 | 4 | -4.3% | -6 | -1.3
O=S(=O)(c1cccs1)N1CCN(c2ncccn2)CC1 | -1.7 | -3 | 2 | 1.7%[38.3 µM] | -2 | -0.4
Cc1ccccc1-n1nc(-c2ccc(N)cc2)cc1N | -4.5 | 3 | -4 | 1.2% | -2 | -1.0
c1ccc(-c2csc(NC3CCCCC3)n2)cc1 | -6.1 | -8 | -3 | 6.6% | -10 | 0.1
COc1ccc(-n2c(-c3ccc(Br)cc3)c[n+]3c2CCCCC3)cc1 | 0.7 | -6 | -9 | 2.6% | -11 | 1.2
CCCCN(C(=O)CSc1nnnn1C)C1CCS(=O)(=O)C1 (stereo unspecified) | -7.7 | 10 | 6 | 0.8% | -1 | 0.3
COc1cc(-c2coc3c(C(=O)NCc4cccc(Cl)c4)cccc23)ccc1O | 3.4 | . | -19 | 13% | -9 | -0.4

4 entries from above, as labelled records:
Cc1ccccc1-n1nc(-c2ccc(N)cc2)cc1N
  D2 ag: -4.5; TRPML1 blocker: 3; Six1-Eya2 inh: -4; PINK1 expr mod: 1.2%; D2 potentiator: -2; TRPML1 agonist: -1.0
c1ccc(-c2csc(NC3CCCCC3)n2)cc1
  D2 ag: -6.1; TRPML1 blocker: -8; Six1-Eya2 inh: -3; PINK1 expr mod: 6.6%; D2 potentiator: -10; TRPML1 agonist: 0.1
COc1ccc(-n2c(-c3ccc(Br)cc3)c[n+]3c2CCCCC3)cc1
  D2 ag: 0.7; TRPML1 blocker: -6; Six1-Eya2 inh: -9; PINK1 expr mod: 2.6%; D2 potentiator: -11; TRPML1 agonist: 1.2
CCCCN(C(=O)CSc1nnnn1C)C1CCS(=O)(=O)C1 (stereo unspecified)
  D2 ag: -7.7; TRPML1 blocker: 10; Six1-Eya2 inh: 6; PINK1 expr mod: 0.8%; D2 potentiator: -1; TRPML1 agonist: 0.3

Remaining list, next part:
SMILES | D2 ag | TRPML1 blocker | Six1-Eya2 inh | PINK1 expr mod | D2 potentiator | TRPML1 agonist
Cc1ccc(/C=C/C(=O)O)cc1S(=O)(=O)N1CCc2ccccc2C1 | -4.1 | -11 | 8 | -0.7% | -6 | -0.3
C#CCOCCOCCOCCNc1nc(N2CCN(C(=O)[C@H](CCCN=C(N)N)n3cc(C(N)[C@@H](C)CC)nn3)CC2)nc(N2CCN(C(=O)[C@H](CCC(=O)O)n3cc([C@@H](N)[C@H](C)CC)nn3)CC2)n1 (stereo partly specified) | -3.1 | 13 | -3 | 0.3% | . | 0.5
Cc1ccc(O)c(NC(=S)NC(=O)c2ccc(-c3ccc(Cl)cc3)o2)c1 | -2.2 | 6 | -22 | -2.2% | -4 | 3.9
O=C(CCN1CCCC1)Nc1cccc(Br)c1 | -1.6 | -5 | -12 | 2.4% | -45 | 0.3

Assay outcomes (PubChem)

No enrichment for hits (roughly 1% active in at least one column).
